# T cruzi inh: blocks replication of Trypanosoma cruzi; T. cruzi beta-gal in NIH3T3, luminescence, 90 h; inhibition, % (test concentration not listed); AID 1885; 300,000 tested, 1.4% active;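 active = mean inhibition across valid replicates above about 55%, limit read from the data; inconclusive = mean below that limit but half or more replicates reach it; inactive = mean below it, under half of replicates reach it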;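 also: signal also drops with host cell toxicity which is not excluded here; 0% = plate median of DMSO wells and 100% = zero luminescence signal; higher percent means less beta-gal luminescence so fewer parasites; stock transfer was 50 nL into about 50 µL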
# AF4-AF9 inh: MLL-AF4/AF9 protein interaction inhibition. 350,000 tested, 0.47% active. P42568. AlphaScreen, biotin-AF4 peptide binding to FLAG-AF9. inhibition, % at 10 µM;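 active = every replicate reaching a set inhibition limit, whatever the replicate mean, cut at about 25% in these data; inconclusive = mean inhibition reaches that limit but some replicates miss it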;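 also: 0% = plate neutral control median and 100% = total signal loss; the record names both 10 and 1 µM as test concentration; the first replicate is given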
# Target sequence (P42568 whole entry, looked up): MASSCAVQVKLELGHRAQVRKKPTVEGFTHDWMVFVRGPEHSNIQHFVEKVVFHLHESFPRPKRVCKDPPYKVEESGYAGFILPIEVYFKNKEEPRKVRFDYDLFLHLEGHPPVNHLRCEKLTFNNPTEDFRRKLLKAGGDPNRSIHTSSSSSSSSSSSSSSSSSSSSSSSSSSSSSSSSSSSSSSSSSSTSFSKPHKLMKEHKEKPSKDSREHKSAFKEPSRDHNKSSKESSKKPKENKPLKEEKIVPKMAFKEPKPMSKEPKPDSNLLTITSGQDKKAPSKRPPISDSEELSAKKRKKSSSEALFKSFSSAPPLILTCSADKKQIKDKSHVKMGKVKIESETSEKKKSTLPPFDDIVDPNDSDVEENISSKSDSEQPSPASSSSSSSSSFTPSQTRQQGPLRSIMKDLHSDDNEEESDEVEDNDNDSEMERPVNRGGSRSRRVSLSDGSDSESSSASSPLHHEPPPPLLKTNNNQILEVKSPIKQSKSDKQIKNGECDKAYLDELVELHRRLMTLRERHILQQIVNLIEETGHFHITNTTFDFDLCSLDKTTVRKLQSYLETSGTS
# Calb FLC: C. albicans growth modulation with fluconazole | 300,000 tested, 0.57% active | C. albicans CaCi-2 (fluconazole-resistant clinical isolate) + fluconazole, Alamar Blue growth, 48 h | growth inhibition, % (concentration not given with the values);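 active = most replicates above 75%; inconclusive = exactly half above 75%; inactive = most below 75%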;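 also: all wells also contain fluconazole at 8 µg/ml as a sub-toxic cotreatment; 0% = median of DMSO wells and 100% = median of geldanamycin control wells; wells of about 8 µL received 7.5 nL stock; the first replicate is given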
# FGF22 binding: shifts melting point of recombinant human FGF22; Q9HCT0; recombinant FGF22 thermal shift, SYPRO orange fluorescence; percent of sucrose octasulfate shift, DMSO zero; calls only at 9.99 µM; 340,000 tested, 1.5% active; AID 651658;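 active = melting point raised past a set limit in the mean and every replicate; inconclusive = no clear call; three in four hits are not shown here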
# Target sequence (Q9HCT0 whole entry, looked up): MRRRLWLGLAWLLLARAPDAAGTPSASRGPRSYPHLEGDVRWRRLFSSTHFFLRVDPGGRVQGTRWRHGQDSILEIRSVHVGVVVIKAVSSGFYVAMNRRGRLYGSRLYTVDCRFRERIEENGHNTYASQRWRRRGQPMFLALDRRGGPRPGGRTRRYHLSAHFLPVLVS
# RanGTP-Impb inh: disruptors of Ran-importin-beta complex formation – biochemical, FRET, CFP-Ran, YFP-importin-beta, homogeneous, primary screen. 300,000 tested, 1.1% active. AID 2216. inhibition, % (concentration not given with the values). cell-free CFP-Ran/YFP-importin-beta FRET ratio;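 active = most replicates above 15%; inconclusive = exactly half above 15%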;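 also: 0% = DMSO wells and 100% = Ran loaded with GDP instead of GTP; wells of about 40 µL received 100 nL stock; the first replicate is given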
# rRNA inh HTS: selective bacterial rRNA inhibition in E. coli; E. coli WT GFP vs humanized-ribosome RFP mutants, fluorescence, 24 h; stronger effect = lower value; DMSO median 0, no signal -100; GFP signal change (wild-type ribosome), % (test concentration not listed); 350,000 tested, 1.6% active;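 active = significant combined selectivity score with lowered wild-type GFP, culture density cut under 30%, mutant RFP and density less affected; inactive = any of these conditions unmet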; also: one replicate is shown; some compounds called inactive have numbers as strong as hits
# Beta apoptosis: blocks beta cell apoptosis; INS-1E cytokine-induced death, ATP luminescence, 48 h; percent of positive-control rescue, neutral wells zero; protection from apoptosis, % (concentration not given with the values); 300,000 tested, 0.8% active; AID 435005;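 active = all replicates at 75% or more, or half of them and the mean; inconclusive = half reach 75% but not the mean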;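 also: 0% = cytokine-treated negative control wells and 100% = positive control rescue; higher means more ATP so stronger rescue from cytokine killing; wells of about 40 µL received 100 nL stock; the first replicate is given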
# ALR inh: blocks human ALR sulfhydryl oxidase activity; purified ALR, DTT oxidation, H2O2 HRP-luminol luminescence; inhibition, % (test concentration not listed); 290,000 tested, 3.8% active;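 active = mean and each replicate at 75% or more; inconclusive = only one of the two met; inactive = neither met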;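 also: stock transfer was 7.5 nL into about 7.5 µL; 0% = neutral wells and 100% = wells with inactivated enzyme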
# Target sequence (P55789 whole entry, looked up): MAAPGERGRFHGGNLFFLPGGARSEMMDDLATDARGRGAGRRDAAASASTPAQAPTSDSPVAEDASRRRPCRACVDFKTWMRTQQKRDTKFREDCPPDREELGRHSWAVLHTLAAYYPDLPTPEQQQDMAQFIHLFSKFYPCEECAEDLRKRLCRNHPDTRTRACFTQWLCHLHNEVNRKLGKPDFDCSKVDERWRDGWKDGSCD
# rRNA inh HTS OD600: second read-out of rRNA inh HTS, no call of its own (marks repeat the call); OD600 change, %; measured here: OD600 growth;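 optical density of the mix in the first replicate; 0 = DMSO median and -100 = no signal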
# rRNA inh HTS RFP: recorded beside rRNA inh HTS, whose call it bears; RFP signal change, %; measured here: RFP humanized mutant strains;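 first replicate; 0 = DMSO median and -100 = no signal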
# Numbers without * were called inactive; i = inactive; ? = inconclusive; · = not tested or not shown; + = active, no number. This is a subset, so the mix of outcomes need not match the whole.
mol	T cruzi inh	AF4-AF9 inh	Calb FLC	FGF22 binding	RanGTP-Impb inh	rRNA inh HTS	rRNA inh HTS OD600	rRNA inh HTS RFP	Beta apoptosis	ALR inh
COc1ccc(C(=O)c2cnc(/N=C/N(C)C)s2)cc1	-2	·	-10	·	-1.9	·	·	·	-3	28
CCC(C(=O)NCCCN(CC)Cc1ccccc1)n1nc(C)c2sc3ccccc3c2c1=O (stereo not drawn)	42	-6.0	-2	i	2.4	0	-12	18	2	-3
CC(C(=O)OCc1nnc(-c2ccccc2)o1)N1C(=O)c2ccccc2C1=O (stereo not drawn)	-4	·	-3	·	5.9	·	·	·	-3	-7
CCN(CC)c1ccc(C(=O)OCc2c(C)noc2C)cc1	11	-4.1	25	i	0.1	-32	-46	-3.9	2	2
COc1ccc(NC2=NCCC2)cc1	2	·	1	·	?	·	·	·	0	10
COC(=O)c1ccc(NC2c3ncccc3C(=O)N2Cc2cccs2)cc1 (stereo not drawn)	-16	4.9	-29	i	0.1	1	1	-0.8	-5	-15
CCOc1ccccc1-n1c(COc2ccc(C)cc2)nnc1SCC(N)=O	8	·	20	·	5.3	·	·	·	0	-1
Cn1nnnc1SCC(=O)c1c(N)n(C)c(=O)n(C)c1=O	2	·	-2	·	-3.0	·	·	·	3	-3
COc1ccc(S(=O)(=O)N2CCN(CC(=O)Nc3sccc3C(N)=O)CC2)cc1OC	·	0.6	·	i	·	1	5	-0.8	2	17
COc1cccc(CNc2ncn[nH]2)c1OCc1ccccc1F	-7	-0.6	3	i	0.4	2	2	-2.0	2	-1
CCOC(=O)c1[nH]ncc1CN1CCCC(C(=O)c2ccc(OC)cc2C)C1 (stereo not drawn)	9	-1.0	-9	i	2.0	-3	4	0.1	-2	-6
COC(=O)Nc1nnc(Cc2ccc(OC)cc2)s1	-2	·	2	·	-1.4	·	·	·	1	·
O=C(Nc1cc2nn(-c3ccccc3)nc2cc1Cl)c1ccco1	2	·	10	·	1.5	·	·	·	-1	·
OCc1n[nH]c(CO)n1	-2	·	-26	·	-1.0	·	·	·	-4	3
O=C(CCCN1C(=O)c2cccc3cccc(c23)C1=O)N1CCN(c2ccccc2O)CC1	-6	·	4	·	?	·	·	·	9	2
O=c1ccc2ccc(Oc3ccc([N+](=O)[O-])cc3[N+](=O)[O-])cc2o1	-2	·	15	·	6.0	·	·	·	1	-2
Cc1cccc(N(CC(=O)NC2CCCC2)C(=O)c2cc3cc4cccc(C)c4nc3s2)c1C	57*	·	8	·	-1.3	·	·	·	38	-3
CC(=O)Nc1c(NC(C)C)c2ccccc2oc1=O	-12	·	-28	·	0.2	·	·	·	9	-8
O=C(NC1CCC(Oc2ccc(C(=O)O)cc2)CC1)NC12CC3CC(CC(C3)C1)C2 (stereo not drawn)	·	-0.9	·	i	·	-7	-2	-13	·	-8
O=C(NCc1ccc(N2CCCC2=O)cc1)c1cn(CCc2ccccc2)nn1	-2	·	6	·	?	·	·	·	-1	-3
O=c1[nH]c(CSc2nnc(Cc3ccccc3)o2)nc2ccccc12	8	-2.8	3	i	8.2	1	19	-2.9	0	0
O=C(OCC(=O)N1CCCCC1)c1ccccc1SCC(=O)N1CCCCC1	0	-0.6	-5	i	-0.6	-7	4	5.8	5	-6
CN(CCCNC(=O)CN1C(=O)CC(C)(C)S(=O)(=O)c2ccccc21)C1CCCCC1	-6	4.7	-2	i	2.2	1	-1	-3.7	-6	-2
COc1ccc(/C(C)=N/N=C2/NC(=O)CC(C(=O)O)S2)cc1 (stereo not drawn)	-1	·	2	·	?	·	·	·	3	1
COc1ccc(C2/C(=C(\O)c3cc(C)ccc3C)C(=O)C(=O)N2CCN(C)C)cc1OC (stereo not drawn)	-12	·	-12	·	1.4	·	·	·	-5	-2
C=CCn1c(SC)nnc1-c1cccc([N+](=O)[O-])c1	-7	·	-7	·	-1.4	·	·	·	3	-4
CN1CCC(=NNC(=O)C(=O)NC2CCCC2)CC1	-4	·	1	·	2.0	·	·	·	-6	-1
Cn1ccnc1SCC(=O)Nc1ccc2nc(SCC(=O)NC3CC3)sc2c1	5	·	-3	·	1.4	·	·	·	-7	98*
CCC(CC)c1ncc[nH]1	-11	4.6	-2	i	1.9	2	8	9.9	-3	-2
COc1ccc(N2CCN(C(=O)Cn3nnc(-c4cccs4)n3)CC2)cc1	7	·	-8	·	2.2	·	·	·	-1	-20
CCN1CCc2c(sc(NC(=O)C3COc4ccccc4O3)c2C(N)=O)C1 (stereo not drawn)	15	-17	-3	i	153*	2	-2	-0.9	2	-4
CCN(CC)c1ccc(NC(=O)c2ccc(S(=O)(=O)N3CCOCC3)cc2)cc1	·	14	·	i	·	-11	-15	-2.8	-5	·
CC(C)(C)n1nnnc1C(c1ccc(F)cc1)N(Cc1ccc(F)cc1)Cc1ccco1 (stereo not drawn)	34	·	14	·	-0.6	·	·	·	77*	·
CC1CCC(C(C)C)C(OCC(O)C[N+]2(C)CCCCC2)C1 (stereo not drawn)	2	-3.3	-28	·	-1.0	·	·	·	·	99*
Cc1[nH]c2ccccc2c1C(=O)CSc1n[nH]c(N)n1	-8	0.7	-15	i	0.2	6	3	0.0	3	2
CCC(=O)N1CCN(c2ccc(NC(=S)NC(=O)COc3ccccc3)cc2)CC1	-4	-2.4	-4	i	5.4	-8	-1	0.7	-7	-3
CN(C(=O)c1cc2c(s1)-c1ccccc1S(=O)(=O)C2)c1ccccc1	8	7.8	2	i	3.3	-19	-19	-3.1	0	·
COc1ccc(C(=O)N/C(=C\c2cn(S(=O)(=O)N(C)C)c3ccccc23)C(=O)NCCCN2CCOCC2)cc1	15	3.5	-5	i	4.1	-4	-7	0.8	-6	0
O=C(O)CCc1c(C(=O)O)[nH]c2ccccc12	-7	·	6	·	-4.5	·	·	·	-4	-6
COCCN(CC(=O)Nc1ccccc1)S(=O)(=O)c1ccc(S(=O)(=O)N2CCCC2)cc1	4	·	28	·	-3.1	·	·	·	2	-4
COc1cccc(-c2nnc(NC(=O)c3ccccc3Br)o2)c1	-11	-11	-6	i	9.0	-58	-78	-20	-6	50
OCCNc1nc(Nc2ccccc2)nc2ccccc12	41	·	0	·	-1.2	·	·	·	5	3
Nc1nc(SCC(=O)NCCOCCO)nc2sc3c(c12)CCCC3	-9	-1.5	1	i	0.7	10	-1	0.5	2	24
C#CCOCCOCCOCCNc1nc(N2CCN(C(=O)[C@H](Cc3ccc(O)cc3)n3cc([C@@H](N)C(C)CC)nn3)CC2)nc(N2CCN(C(=O)[C@H](CCCCN)n3cc([C@@H](N)CC(C)C)nn3)CC2)n1 (stereo partly drawn)	-12	·	3	·	2.2	·	·	·	-9	-3
c1ccc(-c2nnnn2CCOCCn2nnnc2-c2ccccc2)cc1	4	-25	-8	i	-0.3	7	5	0.4	-11	-1
CCOC(=O)CSc1ccc(S(=O)(=O)N2CCCC2)cc1[N+](=O)[O-]	-15	-0.3	40	i	0.2	14	14	-11	-1	-6
O=C(Nc1ccnn1C1CCN(CCCC2CCCC2)CC1)c1ccccc1Cl	17	2.3	0	i	1.7	2	-12	0.5	6	0
COc1cccc(CN2CCN(Cc3cc(OC)c(OC)cc3[N+](=O)[O-])CC2)c1	12	·	-2	·	0.3	·	·	·	-1	-7
CCN(CC)c1ccc(S(=O)(=O)Nc2cc(Cl)ccc2Cl)cc1NC(=S)NC(=O)C1CCCC1	18	-3.7	-3	i	6.4	10	1	-6.2	·	-3
O=c1c2ccccc2c(/C=N/c2nnc(Cc3ccccc3)s2)c(O)n1-c1ccc(Cl)cn1	-18	-18	-3	i	-1.5	-2	-5	9.6	-3	-9
CC(C)c1ccc(COc2ccc(C(=O)N3CCOCC3)cc2)cc1	27	0.4	5	i	3.1	-7	-4	-0.5	76*	0
CC(=O)c1ccc(NC(=O)C2C3C=CC(O3)C2C(=O)O)cc1 (stereo not drawn)	-9	-13	-47	i	-4.7	8	17	-0.2	-4	0
CCOC(=O)C1=C(C)NC(=O)NC1c1ccc(OCCO)c(OC)c1 (stereo not drawn)	-8	·	6	·	-0.4	·	·	·	1	-3
CCOC(=O)c1c(NC(=O)CCN2C(=O)c3cccc([N+](=O)[O-])c3C2=O)sc(C(=O)OC(C)C)c1C	3	·	-6	·	1.3	·	·	·	1	-1
Cc1nc(N2CCc3ccccc3C2)[nH]c(=O)c1CCC(C)C	1	-6.6	-12	i	-2.4	8	3	-6.4	4	-4
COCC(C)N=C1NN=C(c2c[nH]c3ccccc23)CS1 (stereo not drawn)	-11	4.5	-2	i	-0.1	7	12	0.2	5	42
CCN(CC)c1ccc2cc(S(=O)(=O)c3ccc(C)cc3)c(=O)oc2c1	20	·	101*	·	137*	·	·	·	9	1
COC(=O)c1ccc(NC(=O)NS(=O)(=O)c2ccc(C)cc2)cc1	-2	·	3	·	-0.6	·	·	·	-4	·
CCCCN(C(=O)c1ccc2c(c1)OCO2)c1c(N)n(CC(C)C)c(=O)[nH]c1=O	·	7.5	·	i	·	8	16	-0.1	-12	1
O=C(Nc1ccc(S(=O)(=O)N2CCCC2)cc1)N1c2ccccc2Sc2ccccc21	15	2.4	13	+	-0.1	-14	-7	1.5	18	2

# Continuation.
mol	T cruzi inh	AF4-AF9 inh	Calb FLC	FGF22 binding	RanGTP-Impb inh	rRNA inh HTS	rRNA inh HTS OD600	rRNA inh HTS RFP	Beta apoptosis	ALR inh
CCCCC(=O)Nc1nc(C)c(-c2csc(Nc3cc(Cl)ccc3OC)n2)s1	1	3.6	-5	i	-4.2	0	5	-1.0	2	-2
Cc1nc2ccccc2n1CC(=O)N1CC(=O)Nc2ccccc21	-23	·	-4	·	18*	·	·	·	-4	0
COc1ccc(NC(=O)c2cccc(NC(=O)C3C4CC5OC(=O)C3C5C4)c2)c(OC)c1 (stereo not drawn)	4	·	2	·	3.8	·	·	·	2	-43
CCC(=O)N(CCC(c1ccco1)c1ccccc1OC)Cc1cccs1 (stereo not drawn)	0	·	2	·	-0.1	·	·	·	-10	6
CN1CCN(c2nc3c(c(=O)[nH]c(=O)n3C)n2CCSc2nnnn2-c2ccccc2)CC1	10	-1.5	-4	i	3.1	12	-10	-3.2	·	·
O=C(CCCN1C(=O)c2cccnc2C1=O)Nc1ccccc1F	-11	-0.2	-6	i	3.9	13	12	-6.9	-6	-2
CCOC(=O)c1sc(NC(=O)COC(=O)Cn2cnc3ccccc32)c(C(=O)OCC)c1C	-9	·	10	·	-2.1	·	·	·	6	-1
Cc1cccc(N2CCN(C(=O)CCNS(=O)(=O)c3ccc4c(c3)CCC(=O)N4)CC2)c1C	2	·	11	·	?	·	·	·	6	·
O=C(/C=C/c1ccc(S(=O)(=O)NCc2ccco2)cc1)N1CCN(c2ccccc2)CC1	-7	-3.5	9	i	3.3	15	6	1.3	1	0
O=C(NC(NC(=S)Nc1ccccc1)C(Cl)(Cl)Cl)c1cccc(Cl)c1 (stereo not drawn)	65*	·	-4	·	0.2	·	·	·	95*	9
O=C(O)c1ccc(N/N=C/c2ccc3c(c2)OCO3)cc1	-14	2.1	-11	i	-1.6	-19	-10	-4.5	·	99*
O=C(OCn1ncc(Cl)c(Cl)c1=O)c1ccccc1Cl	58*	·	108*	·	-2.2	·	·	·	101*	67
